# PrP UTR inh: inhibition of PrP 5' UTR reporter expression. cell-based PrP 5' UTR mRNA reporter, plate reader. inhibition, % (no concentration beside the values). actives 0.35% (n = 340,000);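 active = every replicate at 50% or more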;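 also: 0 = median of the neutral control wells; tested in H4 reporter cells; numbers are from one replicate; inactives centre near -14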
# ugtP null kill: growth inhibition of ugtP-null S. aureus, primary screen, RN4220 ugtP deletion, OD600; 16 h; some inactives read as strong as hits; growth inhibition, % (test concentration not listed); actives 0.54% (n = 330,000);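 active = z-score under -3 and OD600 up to 0.15 on both plates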;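 also: plate controls were untreated wells for no effect and antibiotic for full effect; wells of about 80 µL received 100 nL stock; the first replicate is given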
# Autofluor counter: compound fluorescence in toxin protease inhibitor counterscreen | actives 3.1% (n = 360,000) | fluorescence intensity (no concentration beside the values) | compound autofluorescence counterscreen, microsphere flow cytometry; hits give high values;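 active = at least 3 SD above the mean of all compounds, about 16000 in these data; inconclusive = too few beads counted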;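 also: 100 nL of 1 mM stock went into each well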
# Sa RN4220 lethal: growth inhibition of S. aureus RN4220, primary screen, OD600 | 16 h | inhibition, % (concentration not given with the values) | actives 0.33% (n = 330,000);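 active = z-score of -3 or lower and OD600 up to 0.18 on both plates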;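 also: plate controls were untreated cells for no effect and reference antibiotic for full effect; stock transfer was 100 nL into about 80 µL; one replicate is shown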
# BJeLR viability: MLPCN primary cell-based screen for lethality selective to Ras in HRASV12 cells; BJeLR (HRASV12) viability, CellTiter-Glo ATP luminescence, 48 h; reference of the scale not given here; inhibition, % (concentration not given with the values); actives 0.17% (n = 300,000);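 active = replicate mean above 50%; inconclusive = above 50% but judged a plate artefact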;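 also: 50 nL library stock added to about 25 µL; numbers are from one replicate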
# Mtb hypoxia inh: PubChem AID 1159583 | actives 0.1% (n = 300,000) | M. tuberculosis hypoxia-regulated fluorescent reporter, fluorescence | fluorescence inhibition, % (concentration not given with the values);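 active = 35 to 45% if threefold the growth effect, above 45% if 1.5-fold the growth effect; inactive = the rest, general growth blockers included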;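 also: wells of about 50 µL received 100 nL stock; 0% = vehicle wells and 100% = reference inhibitor wells; whole bacteria with a GFP reporter of the hypoxia response; strong numbers were not always called active; many hits fall short of the cut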
# Mtb hypoxia inh growth: recorded beside Mtb hypoxia inh, whose call it bears; growth inhibition, %; measured here: M. tuberculosis growth (absorbance);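 0% = vehicle and 100% = reference antibiotic; read after six days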
# Numbers without * were called inactive; ? = inconclusive; / = not tested or not shown.
SMILES,PrP UTR inh,ugtP null kill,Autofluor counter,Sa RN4220 lethal,BJeLR viability,Mtb hypoxia inh,Mtb hypoxia inh growth
CCOc1ccc(C(C)NC(=O)CCC(=O)O)cc1 (stereo unspecified),-9.6,2.4,3334,7.9,0.2,12.5,6.5
Cc1nn(Cc2cccc3ccccc23)c(C)c1NC(=O)c1cccnc1,-12.0,5.5,1957,1.2,12.4,-0.4,15.1
Cn1c(Cc2cccs2)nnc1SCC(=O)N1CCc2ccccc21,-5.6,5.2,4156,2.3,8.9,/,/
Oc1ccc(C=NN2CCCCC2)cc1O,/,0.8,/,-0.8,/,8.6,7.0
CC(=O)c1ccc(-c2nc3c4ccccc4ccn3c2C(C)=O)o1,7.9,-9.5,3513,-13.5,-0.9,0.5,1.0
COC(=O)c1cc(Br)cn1S(=O)(=O)c1ccccc1,-20.0,0.6,3064,3.4,2.7,4.6,-8.2
Cc1ccc(S(=O)(=O)N2C(c3ccc(C(C)C)cc3)CC=C(C(=O)O)C2c2cccc(Cl)c2)cc1 (stereo unspecified),/,77.4,/,32.6,/,6.3,11.6
CC(C)CCOc1ccc(C(=O)NCC(c2cccs2)N2CCOCC2)cc1 (stereo unspecified),-13.8,5.0,?,-1.1,1.3,-6.1,0.0
O=[N+]([O-])c1ccc(Cl)c(/C=N/N2CCN(Cc3ccc(Cl)cc3)CC2)c1,-12.3,/,18114*,/,-3.0,/,/
O=C(NN=Cc1cccnc1)c1cc2ccccc2cc1O,/,-6.1,/,7.1,/,12.4,16.5
Cc1cc(NS(=O)(=O)c2ccc(C3CCCCC3)cc2)no1,-32.8,-36.6,7806,22.2,-2.8,0.4,-3.9
CCOc1ccccc1NC(=O)C1CCN(S(C)(=O)=O)CC1,-38.2,/,3274,/,0.0,/,/
CC(C(=O)NCCS(=O)(=O)c1ccc(Cl)cc1)S(=O)(=O)c1ccc(Cl)cc1 (stereo unspecified),-2.3,8.9,4175,1.8,5.7,8.4,5.9
O=C(C[n+]1ccsc1)c1ccccc1,-47.5,2.0,11164,6.8,13.3,-0.4,3.3
CCCCn1c(N)c(N(Cc2ccccc2OC)C(=O)c2ccc([N+](=O)[O-])s2)c(=O)[nH]c1=O,-21.4,3.9,5118,7.9,4.5,5.0,6.9

# Next part; the last 6 above are carried over.
SMILES,PrP UTR inh,ugtP null kill,Autofluor counter,Sa RN4220 lethal,BJeLR viability,Mtb hypoxia inh,Mtb hypoxia inh growth
O=C(NN=Cc1cccnc1)c1cc2ccccc2cc1O,/,-6.1,/,7.1,/,12.4,16.5
Cc1cc(NS(=O)(=O)c2ccc(C3CCCCC3)cc2)no1,-32.8,-36.6,7806,22.2,-2.8,0.4,-3.9
CCOc1ccccc1NC(=O)C1CCN(S(C)(=O)=O)CC1,-38.2,/,3274,/,0.0,/,/
CC(C(=O)NCCS(=O)(=O)c1ccc(Cl)cc1)S(=O)(=O)c1ccc(Cl)cc1 (stereo unspecified),-2.3,8.9,4175,1.8,5.7,8.4,5.9
O=C(C[n+]1ccsc1)c1ccccc1,-47.5,2.0,11164,6.8,13.3,-0.4,3.3
CCCCn1c(N)c(N(Cc2ccccc2OC)C(=O)c2ccc([N+](=O)[O-])s2)c(=O)[nH]c1=O,-21.4,3.9,5118,7.9,4.5,5.0,6.9
Cc1ccccc1NC(=O)C1CCCN(S(=O)(=O)c2ccc3c(c2)C(C)(C)C(=O)N3C)C1 (stereo unspecified),-10.9,-5.6,6121,3.1,5.1,-9.3,6.6
COC(=O)c1cc2c(C)cc3ccc(C)cn3c-2c1C(=O)OC,-20.8,-9.8,3285,9.0,-1.7,6.0,7.1
CCC1CCc2sc(C(=O)N3CCN(c4ccccn4)CC3)cc2C1 (stereo unspecified),-14.9,-13.6,5667,-1.1,-0.1,2.5,10.7
O=C(Nc1cccc(Cl)c1)c1cncn1-c1ccc(F)cc1,0.1,-7.7,5409,-3.1,1.1,-7.0,1.1
C#CCN1C(=O)S/C(=C/C=C/c2ccc(N(C)C)cc2)C1=O,-115.1,-2.6,3342,6.0,/,18.7,2.6
O=C(c1cccc(S(=O)(=O)N2CCOCC2)c1)N1CCOCC1,-4.8,-4.5,25318*,3.4,-0.3,-1.7,1.2
CC(C)(C)c1ccc(-c2nnc(SCCC#N)n2C2CCCC2)cc1,-17.0,10.2,4208,4.1,0.1,/,/
COCCSc1ccccc1C(=O)Nc1cc([N+](=O)[O-])ccc1OC,-22.1,6.4,4335,5.0,2.1,4.3,2.4
CC(=O)NCCNC(=O)c1cc(-c2cccc3ccccc23)nc2ccccc12,-1.5,-0.4,4824,1.3,-8.5,15.7,4.4
COc1cccc(NC(=O)CCN2C(=O)c3ccc([N+](=O)[O-])cc3C2=O)c1,-26.2,2.6,2638,3.3,-8.7,4.2,-2.8
CCOc1ccc(Oc2ccc(NC(=O)[C@@H](NC(N)=O)[C@@H](C)CC)cc2)cc1,-2.0,3.3,3757,2.2,2.1,11.9,-1.7
O=C(COC(=O)c1cccc([N+](=O)[O-])c1)c1ccc(OCc2ccccc2)cc1,-40.9,-9.0,2464,-4.6,-0.4,8.1,-0.3
COc1ccc(-c2ccc(NCCN3CCOCC3)nn2)cc1OC,-50.2,-1.4,4089,4.9,7.8,16.0,4.7
COc1ccc(N2C(=O)C3CCCN3C2c2cc(OC)c(OC)c(OC)c2)cc1 (stereo unspecified),-4.6,5.8,4561,4.8,-6.4,/,/
COc1ccc2c(c1)c(CCNNC(=O)C(C)(C)C)c(C)n2C(=O)c1ccc(Cl)cc1,-19.4,2.3,3067,-0.8,6.2,4.4,-0.2
Cc1ccc(C(=O)CCC(=O)OCC(=O)NNC(=O)c2ccccc2Cl)cc1,-17.7,1.1,3417,3.9,/,9.9,5.3
Cc1ccnc(NC(=O)c2ccc3[nH]c(=O)c(=O)[nH]c3c2)c1,-15.1,-2.7,5788,2.9,-3.8,7.9,-1.6
Cc1ccc(Oc2ccc(/C=N/O)cn2)cc1,-40.4,/,4605,/,-2.6,/,/
O=C(Nc1ccc(S(=O)(=O)NCC2CCCO2)cc1)c1cnccn1 (stereo unspecified),-18.0,1.6,4728,3.0,-0.7,2.8,0.0
Cn1c(=O)n(CCOc2ccc(Cl)cc2Cl)c2ccccc21,-8.7,-5.6,3464,4.8,-2.6,/,/
Cc1noc(C)c1CSCC(=O)Nc1cc(S(C)(=O)=O)ccc1Cl,-19.7,2.6,?,3.1,-10.6,6.3,-1.0
CNC(=O)Cn1nc(-c2ccc(C)cc2)c2ccccc2c1=O,-15.8,/,3315,/,-3.8,/,/
Cc1ccc(S(=O)(=O)N(C)N=C/C=C/c2ccccc2)cc1,/,4.0,/,6.1,/,11.6,-1.6
O=C(Cc1cccs1)NCc1ccc(Cl)cc1,-35.7,4.9,3526,2.0,-3.2,8.9,23.4
CC(C)c1c(C(=O)NN=C2CCc3ccccc32)nnn1-c1nonc1N,/,-2.8,/,0.0,/,9.2,8.5
OCCNc1nc(NCCC2=CCCCC2)nc(N2CCOCC2)n1,1.6,3.4,2232,2.9,10.0,5.8,7.2
CC1=C(C(=O)OCC2CCCO2)C(c2ccncc2)C2=C(CC(C)(C)CC2=O)N1 (stereo unspecified),-18.2,4.0,4146,2.4,0.7,/,/
O=C(O)c1ccc(-n2nnc3ccccc32)c([N+](=O)[O-])c1,-18.8,-2.7,4013,1.9,-1.1,15.2,3.6
COc1ccc(OC)c(S(=O)(=O)NC2CC2)c1,-9.6,2.7,3893,1.5,-0.2,0.1,0.4
Nc1cc(=O)[nH]c(SCC(=O)NCCC2=CCCCC2)n1,-20.2,4.1,3723,-0.1,/,10.7,9.4
O=[N+]([O-])c1cc(S(=O)(=O)Nc2ccccc2)ccc1N1CCN(c2ccccc2)CC1,-9.0,4.2,1976,-6.4,-14.1,4.4,2.0
NC(=NO)c1cn(Cc2ccccc2Cl)c2ccccc12,/,2.0,/,8.1,/,15.5,8.0
Cc1ccc(Oc2ccc(S(=O)(=O)NCC(C)(C)N3CCOCC3)cc2)cc1,-6.0,20.0,5355,0.0,2.6,-0.2,11.9
O=C(CN1C(=O)CC(c2ccccc2)S(=O)(=O)c2ccccc21)N1CCCCC1 (stereo unspecified),-22.1,7.9,4489,3.4,14.3,9.7,2.5
CCOC(=O)Nc1ccc(C(N)=O)cc1,-26.0,7.6,6021,3.8,-5.7,9.9,-5.7
COc1ccccc1C(=O)NCC(=O)N=Nc1c(O)n(C(C)C)c2ccccc12,-6.0,10.6,4083,1.8,-0.7,10.3,0.9
CC(NC(=O)C(NC(=O)C(Cc1c[nH]c2ccccc12)NC(=O)OC(C)(C)C)C(C)C)C(N)=O (stereo unspecified),-31.2,-2.8,4699,-0.4,-3.4,-4.7,-2.0
CCN(CC)S(=O)(=O)c1ccc(NC(=O)CSc2nc3nc(C)cc(C)c3c(=O)[nH]2)cc1,-9.0,-3.2,3761,7.3,/,9.4,1.1
COc1ccc(NC(=O)COc2ccccc2)cc1Cl,-38.6,6.6,4163,2.4,2.5,8.6,0.4
COc1cccc(/C(O)=C/c2nc3ccc(C(=O)NCCc4ccc(Cl)cc4)cc3[nH]c2=O)c1,13.1,1.4,3168,10.9,-1.4,-8.2,-10.9
COc1cccc(CNC(=O)c2cccc(Br)c2)c1,-11.2,0.4,2471,12.1,-4.6,12.6,7.9
CCn1c(=S)[nH]c2cc(S(=O)(=O)N3CCOCC3)ccc21,-17.2,-3.9,4111,5.0,/,15.5,8.4
O=C(Nc1nccs1)c1ccc(S(=O)(=O)N2CCOCC2)cc1,-15.8,-12.6,4421,-0.2,0.6,5.2,8.1
COc1ccc(C)cc1NC(=O)Nc1ccc(Br)cn1,-26.1,-9.5,18723*,6.7,0.9,12.1,4.6
Cc1ccc(S(=O)(=O)c2ccc(Oc3ccccc3)cc2)cc1,0.6,22.6,4103,-4.9,-4.1,-2.1,6.1
N#Cc1nc(COc2ccccc2)oc1N1CCCCC1,-31.0,1.9,6112,3.3,-5.3,/,/
Fc1ccccc1-c1csc(-c2cccnc2)n1,-45.7,1.7,5114,3.7,3.4,18.5,2.1
O=C(CN1CC[n+]2c(-c3cccs3)csc21)c1ccc(-c2ccccc2)cc1,-2.7,37.9,3193,72.6,6.2,-5.2,3.3
CCC(C)(C)C1CCC2(CC1)NC(=O)N(CC(=O)NCCCc1ccccc1)C2=O (stereo unspecified),13.3,-2.7,?,-0.4,/,-3.2,3.0
O=C(N=Nc1c(O)[nH]c2ccccc12)c1cc(-c2ccc(F)cc2)n[nH]1,-4.4,3.6,4224,-1.0,-3.6,6.5,9.0
CC(=NOCC(=O)Nc1c(C)cc(C)cc1C)c1ccc2c(c1)OCCO2,/,4.6,/,-0.3,/,8.3,8.9
O=C(CC(=O)Nc1cccc(Cl)c1Cl)Nc1cccc(Cl)c1Cl,-9.4,-3.3,3772,0.0,-12.5,-1.2,-2.3
CC(C)c1csc(CN2CCC(N3CCC(C(=O)N4CCOCC4)CC3)CC2)n1,-10.9,1.0,4515,5.7,1.9,-15.5,0.2
CCCCn1c(N)c(N(CCC(C)C)C(=O)c2ccc(C)o2)c(=O)[nH]c1=O,-8.9,0.7,4361,-0.3,/,6.4,1.0
COc1ccc(CN(C(=O)Cn2nnc3ccccc32)C(C(=O)NC(C)(C)C)c2ccco2)cc1 (stereo unspecified),-33.5,-3.8,11353,9.1,8.2,8.3,2.9
O=C(CCN=C1NS(=O)(=O)c2ccccc21)Nc1ccc(F)cc1Cl,-18.4,7.6,3476,0.3,/,-11.7,-8.6
CCn1c(CNC(=O)c2ccco2)nnc1SCC(=O)c1ccc(OC)cc1,-22.2,-8.1,2006,-1.9,0.1,-6.2,-13.0
O=S(=O)(c1cccs1)N1CN(C2CCCCC2)c2nc3ccccc3nc21,-6.6,9.2,4590,5.8,-12.7,8.8,1.5
CC[N+](CC)(CC)CCCCCCCCCC[N+](CC)(CC)CC,8.2,0.9,10043,2.4,5.5,-2.2,-1.1
CCN(CC)CCNC(=O)c1cn(C)c2ccc(S(=O)(=O)N(C)C3CCCCC3)cc2c1=O,-2.7,7.0,6026,0.9,-15.0,/,/
O=C1N/C(=N\N=C\c2ccco2)SC1Cc1ccccc1[N+](=O)[O-] (stereo unspecified),1.0,/,3579,/,-10.9,/,/

# Source: PubChem BioAssay
